Screening data: PubChem BioAssay, several laboratories
Ecoli rRNA inh = reduced GFP signal of wild-type E. coli, primary screen, bacterial rRNA inhibitor project, GFP/RFP fluorescence, OD600, single point | E. coli WT GFP vs humanized-ribosome RFP mutants, 24 h; hits give low values; DMSO median 0, no signal -100 | GFP signal change (wild-type ribosome), % (concentration not given with the values) | actives 1.6% (n = 350,000) | AID 720706, 2013;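 active = significant combined selectivity score with lowered wild-type GFP, culture density cut under 30%, mutant RFP and density less affected; inactive = any of these conditions unmet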; note: one replicate is shown; some compounds called inactive have numbers as strong as hits
ALR H2O2 inh = inhibitors of human ALR sulfhydryl oxidase, primary screen, biochemical, H2O2 detection, HRP-luminol luminescence, single point. FAD-linked sulfhydryl oxidase ALR (Homo sapiens), P55789. purified ALR, DTT oxidation. inhibition, % (no concentration beside the values). actives 3.8% (n = 290,000);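 active = mean and each replicate at 75% or more; inconclusive = only one of the two met; inactive = neither met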;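 note: stock transfer was 7.5 nL into about 7.5 µL; 0% = neutral wells and 100% = wells with inactivated enzyme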
Target sequence (P55789 whole entry, looked up): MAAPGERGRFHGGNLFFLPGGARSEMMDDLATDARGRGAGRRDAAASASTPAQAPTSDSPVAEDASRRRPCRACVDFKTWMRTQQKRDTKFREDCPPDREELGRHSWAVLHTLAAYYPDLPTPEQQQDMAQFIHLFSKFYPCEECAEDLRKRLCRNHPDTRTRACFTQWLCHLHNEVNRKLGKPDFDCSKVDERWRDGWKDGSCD
A1 inh = caspase 3/7 activation in MEF A1-2A-BIM cells, primary screen, A1 inhibitor project, cell-based, luminescence, HTS. Caspase-Glo 3/7 luminescence, 3 h; percent of clofoctol response, vehicle zero. caspase activation, % (concentration not given with the values). actives 0.066% (n = 330,000). AID 2462, 2010;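 active = over half of replicate activation scores above 10%, or exactly half above 10 with the replicate mean above 10; inconclusive = replicate mean below 10 yet half the replicates above 10; inactive = over half of replicates below 10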;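 note: wells of about 30 µL received 50 nL stock; many hits fall short of the cut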
Beta apoptosis = inhibitors of cytokine-induced beta cell apoptosis, primary screen, luminescence; INS-1E cytokine-induced death, ATP luminescence, 48 h; percent of positive-control rescue, neutral wells zero; protection from apoptosis, % (concentration not given with the values); actives 0.8% (n = 300,000); AID 435005, 2010;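 active = all replicates at 75% or more, or half of them and the mean; inconclusive = half reach 75% but not the mean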;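 note: 0% = cytokine-treated negative control wells and 100% = positive control rescue; higher means more ATP so stronger rescue from cytokine killing; wells of about 40 µL received 100 nL stock; the first replicate is given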
Calb FLC = C. albicans growth inhibition with fluconazole, primary screen, CaCi-2 strain, Alamar Blue fluorescence | C. albicans CaCi-2 (fluconazole-resistant clinical isolate) + fluconazole, 48 h | growth inhibition, % (concentration not given with the values) | actives 0.57% (n = 300,000);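 active = most replicates above 75%; inconclusive = exactly half above 75%; inactive = most below 75%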;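 note: all wells also contain fluconazole at 8 µg/ml as a sub-toxic cotreatment; 0% = median of DMSO wells and 100% = median of geldanamycin control wells; wells of about 8 µL received 7.5 nL stock; the first replicate is given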
LANA-H2A inh = blockers of LANA interaction with H2A/H2B – biochemical, FP readout, HTS, primary screen | cell-free LANA-H2A/H2B peptide, fluorescence polarization | inhibition, % (test concentration not listed) | actives 0.6% (n = 320,000) | AID 2629, 2010; in the data active = inhibition mostly above about 10%, no sharp cut-off; inactive = mostly below about 6.7%;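 note: stock transfer was 7.5 nL into about 10 µL; 0% = median of vehicle wells and 100% = median of positive control wells; one replicate is shown; the record names a cut of 25% in any replicate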
B2AR ag = beta2AR agonists driving receptor internalization, primary screen, cell-based, FAP fluorogen, flow cytometry; Am2.2-beta2AR cells; reference of the scale not given here; actives 0.43% (n = 340,000); AID 504454, 2011; Beta-2 adrenergic receptor (Homo sapiens), P07550; response, % (concentration not given with the values);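 active = response above a set limit, near 3 SD of response in nonfluorescent compounds, cut at about 42% in these data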;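 note: stock transfer was 100 nL into about 11 µL; a reference agonist was the positive control; negative values mostly stem from fluorescent compounds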
Target sequence (P07550 whole entry, looked up): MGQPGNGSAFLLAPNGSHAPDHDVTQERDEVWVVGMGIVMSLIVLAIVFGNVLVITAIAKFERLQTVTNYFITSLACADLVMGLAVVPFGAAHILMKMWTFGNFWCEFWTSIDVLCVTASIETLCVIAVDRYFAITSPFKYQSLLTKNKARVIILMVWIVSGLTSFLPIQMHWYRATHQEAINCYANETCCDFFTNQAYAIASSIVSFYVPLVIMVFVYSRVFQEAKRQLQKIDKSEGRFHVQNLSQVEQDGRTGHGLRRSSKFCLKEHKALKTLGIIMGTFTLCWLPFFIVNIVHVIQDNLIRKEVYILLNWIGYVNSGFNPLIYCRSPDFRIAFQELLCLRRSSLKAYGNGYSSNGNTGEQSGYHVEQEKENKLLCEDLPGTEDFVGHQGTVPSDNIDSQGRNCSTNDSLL
T cruzi repl = inhibitors of intracellular T. cruzi growth, primary screen, luminescence, NIH3T3 host cells; actives 1.4% (n = 300,000); T. cruzi beta-gal in NIH3T3, 90 h; inhibition, % (no concentration beside the values);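 active = mean inhibition across valid replicates above about 55%, limit read from the data; inconclusive = mean below that limit but half or more replicates reach it; inactive = mean below it, under half of replicates reach it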;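 note: signal also drops with host cell toxicity which is not excluded here; 0% = plate median of DMSO wells and 100% = zero luminescence signal; higher percent means less beta-gal luminescence so fewer parasites; stock transfer was 50 nL into about 50 µL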
Ecoli rRNA inh OD600 = recorded beside Ecoli rRNA inh, whose call it bears; OD600 change, %; measured here: OD600 growth;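 optical density of the mix in the first replicate; 0 = DMSO median and -100 = no signal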
Ecoli rRNA inh RFP = recorded beside Ecoli rRNA inh, whose call it bears; RFP signal change, %; measured here: RFP humanized mutant strains;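 first replicate; 0 = DMSO median and -100 = no signal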
Active calls of the source: *; ? = inconclusive; nt = no result given; & = joins results of further samples.

SMILES	Ecoli rRNA inh	Ecoli rRNA inh OD600	Ecoli rRNA inh RFP	ALR H2O2 inh	A1 inh	Beta apoptosis	Calb FLC	LANA-H2A inh	B2AR ag	T cruzi repl
CC[C@@H]1C/C=C\Cc2ccccc2[C@H](C(=O)C[C@@H](O)CC(C)=O)OC1=O	-36	-44	-17	-1	0.8	?	nt	-0.5	22	nt
CCOc1ccc2nc(Cl)c(C3CC(c4ccco4)=NN3S(C)(=O)=O)cc2c1 (configuration not stated)	-4	2	-9.3	-5	0.1	-13	-2	-3.2	1	2
O=C(CSc1nnc(-c2ccccn2)n1-c1ccccc1)Nc1ccc2c(c1)OCO2	nt	nt	nt	0	0.2	4	-2	4.5	-10	0
Cc1[nH]c2ccccc2c1/C=C(\C#N)C(=O)NC1CC1	-4	-10	-3.4	-16	-0.6	-1	-1	0.3	10	-6
COc1ccc(C2SCC(=O)N2c2ccc(F)cc2)cc1 (configuration not stated)	2	0	4.3	99*	-1.0	-2	11	1.0	-5	-4
COc1ccc(CC(=O)NCc2csc(-c3cccs3)n2)cc1OC	-20*	-6.9*	5.5*	-4	0.6	-3	10	-2.8	-1	-11
COc1ccc(/C=C/c2nnc(NC(=O)C(C)(C)C)s2)cc1	3	7	3.4	3	-0.1	-8	5	6.4	5	8
COc1ccc(C2C=C(Nc3ccccc3)C(=O)N2c2ccccc2)cc1OC (configuration not stated)	6	6	1.5	3	0.0	4	-3	0.5	-16	15
C=C(C(=O)O)C1CCC2(C)CCCC(C)(O)C2C1 (configuration not stated)	nt	nt	nt	-24	0.2	nt	6	-4.4	1	-11
COCCCNC(=O)c1ccc(OC)c(OC2CCN(C(C)C)CC2)c1	5	9	-0.1	nt	-0.7	nt	5	-2.6	8	-2
O=C(COc1ccc(S(=O)(=O)N2CCOCC2)cc1)N1CCCCCC1	20	10	0.1	-1	-0.1	nt	-2	0.2	6	0
CCOc1cccc2cc(C(=O)N3CCN(C/C=C/c4ccccc4)CC3)c(=O)oc12	nt	nt	nt	nt	-0.3	nt	4	1.9	3	12
C[N+](C)(C)CCOC(N)=O	17	23	3.6	-9	1.3	-3	nt	-2.1	7	nt
Cc1nc(-c2ccccc2)sc1C1(C)CC(c2c(Cl)cccc2Cl)=NO1 (configuration not stated)	-8	-12	-12	nt	-0.8	-3	9	2.5	3	11
[O-]/C(=C(\C(=S)Nc1cccc2ccccc12)[n+]1ccccc1)c1cccs1	-12	-48	2.5	-25	0.1	0	1	3.0	5	11
CNC(=S)N/N=C(\C)c1ccc(-n2ccnc2)cc1	nt	nt	nt	-3	0.4	0	-8	-0.6	-8	-5
Cc1cccc(Cn2ccc(NC(=O)c3cccnc3)n2)c1	5	10	-0.4	-1	0.2	-5	-2	3.5	0	-18
O=C(Cn1c(=O)oc2cc(S(=O)(=O)N3CCCC3)ccc21)NCc1ccc(F)cc1	1	2	-1.9	-2	1.0	-1	1	-2.2	-2	-9
O=C(COc1cccnc1[N+](=O)[O-])Nc1cccc(Br)c1	-13	-7	-1.5	-6	0.4	-4	nt	0.4	-7	nt
CCOC(=O)C(Cc1ccccc1)C(=O)NCc1cccnc1 (configuration not stated)	5	5	-2.0	2	0.4	nt	-10	-2.2	22	-8
Clc1ncnc2scc(-c3ccccc3)c12	nt	nt	nt	-4	0.1	-2	-2	-0.5	-9	-19
O=C(Nc1ccc(S(=O)(=O)N2CCCC2)cc1)c1cnccn1	22	15	0.9	nt	-0.9	-3	-21	6.5	10	-12
O=C(CCNC(=O)c1ccccc1)Nc1ccc(Cl)c(S(=O)(=O)N2CCCCC2)c1	-41*	-47*	-6.0*	-1	-0.3	-5	nt	1.3	2	nt
CC(C)C(=O)NC(=S)Nc1ccccc1N1CCN(C(=O)c2ccccc2)CC1	20	20	0.1	-2	-0.1	4	-1	-0.5	7	6
O=C(NC1=NCCS1)c1ccc(Cl)c(S(=O)(=O)N2CCc3ccccc32)c1	-11	-3	-3.0	-2	0.2	-2	11	1.0	-4	2
CN(C)c1ccc(NC(=O)C(=O)C2C(=O)Nc3ccccc32)cc1 (configuration not stated)	3	7	-2.6	58	-4.0	-5	3	6.9	1	-2
C/C(N)=C(/C#N)C(=O)CSc1nnc(Nc2c(C)cccc2C)s1	-3	-15	3.8	-20	-0.6	-2	12	1.8	-2&-6	4
Cc1cc(Br)c(NC(=O)c2c(-c3c(Cl)cccc3Cl)noc2C)c(Br)c1	2	-3	-0.9	-5	0.6	2	-2	-5.0	-16	15
Cc1cc(N/N=C/c2ccccc2O)nc(-c2ccccc2O)n1	nt	nt	nt	0	-0.7	69	4	-1.3	-5	35
CCn1c(C)nc2cc(-c3nc4n(n3)Cc3ccccc3-4)ccc21	nt	nt	nt	-5	-11	71	13	-4.4	1	11
COc1ccc(C(=O)Nc2ccccn2)cc1	nt	nt	nt	-3	0.1	-9	-7	2.3	0	-1
CSc1ccc(Cl)c(C(=O)OCC(=O)N2CC(C)OC(C)C2)c1 (configuration not stated)	3	-2	-2.0	1	0.6	1	0	-0.8	-17	-10
NC(=O)CCc1nc2cc(C(F)(F)F)ccc2n(Cc2ccccc2)c1=O	4	6	5.6	0	0.4	2	-20	-1.7	-10	6
CCOc1ccc(C(=O)N/N=C/c2c(C)[nH]c(=O)[nH]c2=O)cc1	12	8	-0.2	-16	0.0	0	-7	0.8	nt	-15
COCc1ccc(C(=O)NCC2(N3CCCCC3)CCCCC2)cc1	6	7	0.9	-2	0.0	25	-8	5.8	1	-13
O=C(O)Cc1c(C(=O)O)[nH]c2ccc(C(=O)O)cc12	7	7	-3.2	nt	0.9	-6	-4	-5.5	5	-9
Cc1c(C(=O)Oc2cc(N)n(S(C)(=O)=O)n2)cccc1[N+](=O)[O-]	8	-1	-3.3	35	0.6	1	-1	-1.0	-3	-5
FC(F)(F)c1cccc(Oc2ccc3c(C(F)(F)F)cc(C(F)(F)F)nc3n2)c1	5	4	-0.9	-1	0.9	4	1	-7.9	-5	0
COc1cc(OC)c(C(=O)Nc2ccc(N(C)C)cc2)cc1OC	nt	nt	nt	100*	0.9	1	3	3.3	4	7
COC(=O)C(Cc1ccccc1)NC(=O)CCNC(=O)c1ccco1 (configuration not stated)	-29	-40	-3.4	nt	-2.7	nt	17	4.1	-3	-5

Three compounds already listed, sorted by the number in A1 inh, ascending:
canonical_smiles | A1 inh
CCn1c(C)nc2cc(-c3nc4n(n3)Cc3ccccc3-4)ccc21 | -11
COc1ccc(C(=O)Nc2ccccn2)cc1 | 0.1
FC(F)(F)c1cccc(Oc2ccc3c(C(F)(F)F)cc(C(F)(F)F)nc3n2)c1 | 0.9

Remaining list, next part:
SMILES	Ecoli rRNA inh	Ecoli rRNA inh OD600	Ecoli rRNA inh RFP	ALR H2O2 inh	A1 inh	Beta apoptosis	Calb FLC	LANA-H2A inh	B2AR ag	T cruzi repl
CCOC(=O)C1C(=O)CC(C)(O)C(C(=O)OCC)C1c1ccc(C)s1 (configuration not stated)	nt	nt	nt	-1	0.9	-2	6	-0.8	-4	-6
CS(=O)(=O)N(CCc1ccccc1)CC(=O)N1CCN(c2ccccc2)CC1	nt	nt	nt	nt	2.9	-2	-11	0.3	-6	4
Cc1ccc(O)c(-c2cc(C(=O)NCc3ccncc3)[nH]n2)c1	nt	nt	nt	90*	0.3	-8	-3	0.6	7	-3
COCCCNc1nc2ccccc2nc1NS(=O)(=O)c1ccc(C)c(C)c1	-4	-7	11	-5	0.2	1	19	5.5	-22	8
CCOc1ccc(S(=O)(=O)NCc2cccnc2)cc1NC(=O)c1ccccc1F	5	9	-3.1	-8	-1.1	0	-5	1.8	-5	-3
CN1/C(=C\C=C2/SC(=S)NC2=O)C(C)(C)c2ccccc21	20	-68	58	58	-1.0	99*	1	-112	-137	75*
COC(=O)c1sccc1NC(=O)Cc1ccc(Br)cc1	nt	nt	nt	-8	-4.9	-1	-21	-2.2	0	-1
Cc1ccc(NC(=O)CSc2nc3nc(C)c(Br)cc3[nH]2)cc1F	2	4	3.6	43	3.2	-1	21	6.3	-9	1
O=C(NCCCN1CCOCC1)c1c(F)cccc1F	10	3	-7.0	0	0.3	1	-19	3.0	6	-2
CC1CCC(NC(=O)CSc2nncs2)CC1 (configuration not stated)	5	2	-2.8	-3	0.1	-4	-6	0.2	4	-6
CCOC(=O)c1c(NC(=O)c2ccc(Br)o2)sc(C)c1CC	nt	nt	nt	6	-0.8	6	2	1.3	19	18
CC1CN(CC(=O)NC(C)c2ccccc2)CC(C)O1 (configuration not stated)	-6	-2	-5.0	-1	0.8	-3	-2	1.5	-5	2
Cc1cccc(C)c1OCC(=O)N/N=C/C=C/c1ccco1	4	10	6.5	-17	0.3	6	-1	7.0	2	-27
CC(C)Oc1c(N2CCOCC2)c(=O)c1=O	4	10	-0.3	-14	0.0	4	1	-3.5	-1	5
Cc1c(NC(=O)Cc2cccs2)cccc1[N+](=O)[O-]	19	11	2.9	-3	0.7	nt	-11	1.6	-4	-7
O/N=C\c1ccccc1Oc1ccc(F)cc1	-25*	3.1*	-1.0*	-2	0.0	-1	-2	-0.7	-11	0
Cc1cc(OCC(=O)NCCN2CCOCC2)ccc1Br	nt	nt	nt	nt	0.0	0	3	-0.4	-2	3
O=S(=O)(Nc1nc2ccccc2nc1NCc1ccco1)c1ccccc1	nt	nt	nt	nt	-0.2	-11	-3	8.9	-3	-2

Entries of single compounds from above. Order of screens: Ecoli rRNA inh, Ecoli rRNA inh OD600, Ecoli rRNA inh RFP, ALR H2O2 inh, A1 inh, Beta apoptosis, Calb FLC, LANA-H2A inh, B2AR ag, T cruzi repl
COC(=O)c1sccc1NC(=O)Cc1ccc(Br)cc1 is entered as nt, nt, nt, -8, -4.9, -1, -21, -2.2, 0, -1
Cc1ccc(NC(=O)CSc2nc3nc(C)c(Br)cc3[nH]2)cc1F is entered as 2, 4, 3.6, 43, 3.2, -1, 21, 6.3, -9, 1
CCOC(=O)C1C(=O)CC(C)(O)C(C(=O)OCC)C1c1ccc(C)s1 (configuration not stated) is entered as nt, nt, nt, -1, 0.9, -2, 6, -0.8, -4, -6
CS(=O)(=O)N(CCc1ccccc1)CC(=O)N1CCN(c2ccccc2)CC1 is entered as nt, nt, nt, nt, 2.9, -2, -11, 0.3, -6, 4

The list is partial; count on the stated rates, not on these rows.
